AmpC inh no det: AmpC beta-lactamase inhibition, detergent-free assay. AmpC nitrocefin hydrolysis, absorbance 480 nm, no detergent; potencies from a single point are estimates. Potency, µM (doses to about 28.7 µM), without a hit: at the highest dose activity change, negative = inhibition. hit rate 1.8% among 71,000. AID 585; active = falling curve, for most hits resting on a single point; inconclusive = weak or doubtful change; inactive = flat or rising curve; also: % of control where 0% means no effect; about half of the hits show no inhibition at the top dose; a quarter of the inactives give rising signals
Target sequence (P00811 whole entry, looked up): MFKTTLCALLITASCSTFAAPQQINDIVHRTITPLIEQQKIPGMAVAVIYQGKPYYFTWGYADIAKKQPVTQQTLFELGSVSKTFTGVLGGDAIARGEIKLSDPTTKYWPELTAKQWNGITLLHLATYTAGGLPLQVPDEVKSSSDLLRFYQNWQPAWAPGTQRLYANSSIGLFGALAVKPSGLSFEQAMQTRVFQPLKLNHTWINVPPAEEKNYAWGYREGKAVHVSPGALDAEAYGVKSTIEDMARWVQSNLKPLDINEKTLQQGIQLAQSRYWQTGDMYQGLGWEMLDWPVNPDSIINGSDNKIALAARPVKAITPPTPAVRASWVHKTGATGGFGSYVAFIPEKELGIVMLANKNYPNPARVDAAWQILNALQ
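AmpC in 20 mM phosphate buffer pH 7.0 was preincubated 15 min at room temperature with compounds. Nitrocefin (800 uM stock) was then added and hydrolysis followed at 480 nm every 20 s for 4 min.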
* = called active by the depositor; [ ] = another dose, or the depositor's remark. Potency is read from the fitted curve at half-maximal effect.

SMILES | AmpC inh no det
O=C(CN1C2=NCCCN2c2ccccc21)c1ccc2c(c1)OCO2 | 3%
CC(=O)N(C)c1ccc(OCC(O)CN(Cc2ccco2)S(=O)(=O)c2ccc(C)cc2)cc1 (stereo not drawn) | 131%
CN1CCc2c(sc3c2c(NCc2ccco2)nc2nnnn23)C1 | 30%
CCOC(=O)c1cnc(-c2ccccc2)nc1N | -7%
Cc1ccc(-c2nsc3c(N4CCN(C(=O)c5ccco5)CC4)ncnc23)cc1 | 119%
CCc1ccc(C2CC(c3ccc(Cl)cc3)n3nc(N)nc3N2)cc1 (stereo not drawn) | 4µM*[single pt active]
N[C@@H](Cc1ccccc1)c1nnc2sc(SCc3ccccc3)nn12 | 65%
COc1cccc(Cn2c(=O)c(C)nc3cnc(Oc4ccccc4)nc32)c1 | 103%
COCc1[nH]nc2c1C(c1ccccc1F)C(C#N)=C(N)O2 (stereo not drawn) | -7%
COc1ccccc1C(=O)NC(CCSC)C(=O)OCC(=O)NC(=O)NCc1ccco1 (stereo not drawn) | 6%
CCOC(=O)c1c(NC(=O)Cn2c(=O)oc3ccccc32)oc(C)c1C(C)=O | 0%
O=S(=O)(c1ccc(F)c2ccccc12)N1CCCCC1 | 0%
Cn1nnc2cc(C(=O)NCc3ccc4c(c3)OCO4)ccc21 | -2%
O=C1C(=O)N(CCOCCO)C(c2ccccn2)/C1=C(\O)c1ccccc1 (stereo not drawn) | -1%
O=c1cc(CF)[nH]c(=S)[nH]1 | -2%[5.75 µM]
Cn1c(=O)c2c(nc(N3CCN(c4ccccc4)CC3)n2CCCc2ccccc2)n(C)c1=O | 135%
O=C(Cn1c(=O)oc2cc(S(=O)(=O)N3CCCC3)ccc21)Nc1cccc(C(F)(F)F)c1 | -3%
C(=Nc1cnc2ccccc2c1)c1ccc2ccccc2n1 | 7%[5.75 µM]
O=S(=O)(c1cccc(C(F)(F)F)c1)N(CCCN1CCOCC1)Cc1cccs1 | 84%
O=S(=O)(Nc1ccc2nc(-c3ccc(Br)o3)[nH]c2c1)c1ccccc1 | 3.2µM*
Nc1nonc1C(=O)OCC(=O)N1CCOCC1 | -7%
CCCn1c(=N)n(CC(=O)OCC)c2ccccc21 | -10%
COC(=O)c1sccc1NC(=O)C1CC=CCC1C(=O)O (stereo not drawn) | -7%
O=S(=O)(NCc1cn2ccsc2n1)c1cccs1 | -1%
COC(=O)c1ccc(N2C(=O)c3ccc(OC)c(OC)c3C2=O)cc1 | 13%

A second format for 3 compounds above:
Structure,AmpC inh no det
O=C1C(=O)N(CCOCCO)C(c2ccccn2)/C1=C(\O)c1ccccc1 (stereo not drawn),-1%
O=c1cc(CF)[nH]c(=S)[nH]1,-2%[5.75 µM]
Cn1c(=O)c2c(nc(N3CCN(c4ccccc4)CC3)n2CCCc2ccccc2)n(C)c1=O,135%

(next part)
SMILES | AmpC inh no det
O=C(CN1CCCCCC1)OCCN=C1NS(=O)(=O)c2ccccc21 | -15%
COc1ccc(-n2c(SCC(=O)OC(C)C)nnc2-c2ccccn2)cc1 | 44%
CC(C)Oc1ccc(-c2nn(-c3ccccc3)cc2/C=c2\sc3ncnn3c2=O)cc1 | 8%
Cc1ccc2c(c1)c1c3n2CC(=C2C(=O)OC(C)(C)OC2=O)NC3CCC1 (stereo not drawn) | 75%
COc1ccc(S(=O)(=O)N(C)c2ccc(OCC(=O)Nc3cc(C)on3)cc2)cc1 | -6%
C=CCOc1c(CNc2nccs2)cccc1OCC | 90%
CN(C)c1cccc(O)c1 | 8%
O=C(O)CC(c1ccc(Cl)cc1)n1cccc1 (stereo not drawn) | -16%
c1csc(CNc2ncncc2-c2ccoc2)c1 | 19%
O=C(NCC(c1cccnc1)N1CCN(c2ccccc2)CC1)C1CCCCC1 (stereo not drawn) | 53%
COC(=O)c1cc(/C=C/c2ccccc2)on1 | -1%
CC(=O)C(C)Oc1ccc2c3c(c(=O)oc2c1)CCCCC3 (stereo not drawn) | 20%
Cc1cc(C)nc(NC2=NCCN2C(=O)Nc2ccc(Cl)c(Cl)c2)n1 | 6%
N=c1n(CCO)c2ccccc2n1CCOc1ccc(Cl)cc1Cl | 4µM*[single pt active]
CN(c1ccccc1C(=O)Nc1ccc(S(=O)(=O)N2CCCCC2)cc1)S(C)(=O)=O | 26%
O=C(COc1ccccc1)N1CCN(Cc2c[nH]c3ccccc23)CC1 | 63%
C=CCC(=O)OCC(=O)Nc1ccc(Oc2ccccc2)cc1 | 14%
Cc1c(Cl)cccc1N(CC(=O)N1CCCCCC1)S(C)(=O)=O | 44%
CC(NC(=O)Cc1ccsc1)c1ccc(S(N)(=O)=O)cc1 (stereo not drawn) | -9%
CCOC(=O)C(C)C1(O)c2ccccc2-c2ncccc21 (stereo not drawn) | 4%
CC(=O)Nc1sc2c(c1C(=O)N1CCOCC1)CCCCC2 | 2%
O=C(O)CCC(=O)c1ccc2c(c1)OCCO2 | 1%
Cn1nnc2cc(NC(=O)N3CCN(c4ccccn4)CC3)ccc21 | 0%
COCCCNC(=O)c1ccc(N2CCCC2)c(NS(=O)(=O)c2ccc(C)cc2)c1 | 51%
O=c1n(-c2ccccc2)c(=O)n2n1CCC2 | 30%
SMILES | AmpC inh no det
COCCn1c(=N)c(C(=O)NCc2ccco2)cc2c(=O)n3ccccc3nc21 | 4%
COc1cccc(-n2c(Cc3cc(=O)[nH]c(=O)[nH]3)nnc2SCC(=O)N2CCCC2)c1 | -8%
CCCC(c1nnnn1CC(=O)OCC)N(Cc1cc2ccc(C)cc2[nH]c1=O)C1CCCC1 (stereo not drawn) | 38%
c1ccc(CCN2CCCCCC2)nc1 | -8%[5.75 µM]
COC(=O)C1=C(C)N(CC2CCCO2)C(=O)C1 (stereo not drawn) | 4%
COC(=O)Nc1nnc(-c2ccccc2Cl)s1 | -6%
C[N+](C)(C)CCN(Cc1cccs1)c1ccccn1 | -3%[5.75 µM]
Cc1ccc(-n2ncc3c(=O)[nH]c(SCC(=O)N4CCC(C)CC4)nc32)cc1C | 10%
CC(=O)N1CCC[C@@]2(CCN(Cc3ccccc3)C2)C1 | 1%
Cn1cnc([N+](=O)[O-])c1SCC(=O)O | -12%[5.75 µM]
O=c1cc(CSc2nnc(-c3ccco3)o2)c2ccccc2[nH]1 | 4%
COc1cccc(-n2ccnc2SCC(=O)Nc2nccs2)c1 | -12%
Cc1cc(NC(=O)C(C)C)ncc1NC(=O)CCc1ccccc1 | 0%
O=C(Nc1cnn(Cc2ccc(F)cc2)c1)c1cc(-c2ccc(Br)cc2)on1 | -14%
Cc1cc(NC(=O)CCC(=O)N(c2ccc(F)cc2)C2(C(=O)NC3CCCCC3)CCCC2)no1 | 94%
NC(=O)COc1c(-c2ccccc2)oc2ccccc2c1=O | -6%
CCCCC[C@H](O)C=C[C@H]1[C@H](O)CC(=O)[C@H]1CCCCCCC(=O)O | 20%
COCCn1c(=O)cnc2cnc(Nc3cccc(OC)c3)nc21 | 20%
CC1CCCN(S(=O)(=O)c2ccc(C(=O)Nc3nnc(-c4ccccc4Cl)o3)cc2)C1 (stereo not drawn) | -23%
COC(=O)C1=C(N)Oc2cc(C)n(CCN3CCOCC3)c(=O)c2C1c1cccnc1 (stereo not drawn) | 4%
CN(C)c1cccc(C(=O)NC2CCCCCC2)c1 | 10%
COc1cc2nc(COc3ccc(C#N)cc3)n(CC#N)c(=O)c2cc1OC | 60%
C=CCn1c(C)c(C(C)=O)c(SC)nc1=S | -6%
CCOC(=O)C1CCCN(C(=O)CCCn2nc(C)n3c(cc4sccc43)c2=O)C1 (stereo not drawn) | 113%
COc1ccc(Oc2ncc3nc(-c4ccccc4)c(=O)n(CCC#N)c3n2)cc1 | 19%
SMILES | AmpC inh no det
CC(NC(=O)CCC(=O)NC(C)C1COc2ccccc2O1)C1COc2ccccc2O1 (stereo not drawn) | 102%
CCOC(=O)CSc1nnc(Cn2c(=O)sc3ccccc32)n1-c1ccccc1C | 83%
Cc1ccc(CCNC(=O)C2CCCN(S(=O)(=O)c3c(C)nn(C)c3C)C2)cc1 (stereo not drawn) | 68%
CCCCOCCOP(=O)(OCCOCCCC)OCCOCCCC | 145%
COCCn1c(=O)c(-c2ccc(OC)cc2)nc2cnc(Oc3ccc(OC)cc3)nc21 | -3%
COC(=O)c1cc(OC)c(OC)cc1NC(=O)Cn1nnc(-c2ccccc2Cl)n1 | 87%
Cc1nc2ccccc2c(=O)n1NC(=O)c1ccccc1Cl | 0%
O=C(CC1SCCNC1=O)Nc1cccc(Cl)c1 (stereo not drawn) | -8%
O=C(OCC#CCSc1nnc(-c2cccc3ccccc23)o1)c1cccs1 | -20%
NC(=O)c1cc(S(=O)(=O)NC2CCCCC2)co1 | -7%
COc1ccc(CCNC(=O)CSCc2n[nH]c(=O)[nH]2)cc1OC | -11%
CCOc1nc(-c2ccccc2)ccc1-c1noc(-c2ccncc2)n1 | 40%
CN1CCN(C(=O)c2cn(C)c3ccc(S(=O)(=O)N(C)C4CCCCC4)cc3c2=O)CC1 | 27%
Cc1cc(=O)[nH]c(Nc2ccc(C(=O)OC(C)C)cc2)n1 | 6%
Cc1ccc(C)c(NS(=O)(=O)c2ccc(NC(=O)c3ccco3)cc2)c1 | -16%
C=CCn1c(SCc2ccccc2)nnc1-c1cccnc1 | -2%
CC(=O)Nc1ccc(NC(=O)c2ccccc2F)cc1 | 2%
O=C(CN1C(=O)C2(OCCCO2)c2ccccc21)NCc1ccccc1 | 4%
Cc1ccc(Nc2nc(N)nc(CC#N)n2)cc1 | -3%
COc1ccc(NCc2nnc(SCC(=O)c3ccc(OC)cc3)n2C)cc1 | 109%
COc1ccc(NC(=O)Cn2c(C)cc(=O)c3cccc(OC)c32)cc1 | 24%
COC(=O)N1CCC2(CC1)CCN(c1ccccc1)CC2 | 25%
COc1cccc(Cn2c(=O)c(-c3cccs3)nc3cnc(N(C)C)nc32)c1 | -12%
O=C(O)CC(C(=O)O)n1nc(-c2ccccc2)cc1-c1ccccc1 (stereo not drawn) | -8%
O=C(NCc1ccccn1)c1n[nH]c2ccccc12 | -13%

Nothing new here: five of the compounds above.
SMILES | AmpC inh no det
CCOC(=O)CSc1nnc(Cn2c(=O)sc3ccccc32)n1-c1ccccc1C | 83%
Cc1ccc(CCNC(=O)C2CCCN(S(=O)(=O)c3c(C)nn(C)c3C)C2)cc1 (stereo not drawn) | 68%
CCCCOCCOP(=O)(OCCOCCCC)OCCOCCCC | 145%
COCCn1c(=O)c(-c2ccc(OC)cc2)nc2cnc(Oc3ccc(OC)cc3)nc21 | -3%
COC(=O)c1cc(OC)c(OC)cc1NC(=O)Cn1nnc(-c2ccccc2Cl)n1 | 87%

Following part:
SMILES | AmpC inh no det
Cc1ccc2c(C)cccc2c1 | -9%
O=C(C1CCC(CNc2c(N3CCCCC3)c(=O)c2=O)CC1)N1CCN(c2ccccn2)CC1 (stereo not drawn) | 4µM*[single pt active]
COc1ccc(OC)c(CCNC(=O)CC2Oc3ccc(C)cc3NC2=O)c1 (stereo not drawn) | 10%
O=C(NC1CCCCC1)c1cc2nc3c(c(C(F)(F)F)n2n1)CCCC3 | 72%
COc1ccccc1NC(=O)c1ccc(Cl)c(S(=O)(=O)N2CCOCC2)c1 | 48%
CCOc1ccccc1N(CC(=O)OC)S(=O)(=O)c1ccccc1 | 14%
COc1ccc(CN2CCC(C(=O)N3CCN(c4ccccc4F)CC3)CC2)cc1OC | 30%
COc1ccc(CNc2ccnc(-c3ccc4c(c3)OCO4)n2)c(OC)c1 | 50%
CNS(=O)(=O)c1ccccc1C(=N)c1ccccc1 | -9%[5.75 µM]
CC1CCN(C(=O)Cn2cc(C(=O)c3ccco3)c3ccccc32)CC1 | 37%
CCC(C)NCC(O)COCc1ccc(Cl)cc1 (stereo not drawn) | 9%
COC(=O)c1cn(NC(=O)c2cccnc2)c(=O)c2ccccc12 | -13%
O=C(c1cccc(S(=O)(=O)N2CCOCC2)c1)N1CCCCCC1 | 11%
CCOC(=O)c1ccc2c(c1)nc(C1CCN(S(=O)(=O)c3cccs3)CC1)n2CC | 37%
Cc1ccc(C)n1-c1ccc2c(c1)COC2=O | 3%
Cn1nnnc1SCC(=O)N1CCN(c2ccc(Cl)cc2)CC1 | 35%
COc1ccc(OC)c(N2C(=O)[C@@H]3C(c4ccccc4Cl)=NO[C@@H]3C2=O)c1 | -19%
COc1cccc(C2=NOC(C(=O)N3CCOCC3)C2)c1 (stereo not drawn) | -11%
CCOC(=O)c1c(C)[nH]c(C(=O)CN2C(=O)NC(CC)(c3ccccc3)C2=O)c1C (stereo not drawn) | 22%
CC(=O)NCN1CCN(CNC(C)=O)CC1 | -3%
Cc1c(NC(=O)c2cccc(S(=O)(=O)N3CCOCC3)c2)c(=O)n(-c2ccccc2)n1C | 6%
Cc1oc2c(c(=O)c1C)C(=O)CC(c1ccccc1)C2 (stereo not drawn) | -8%
COC(=O)c1ccccc1NC(=O)c1ccc(-c2ccccc2F)o1 | -12%
Cc1cc(C)cc(OCC(=O)N(Cc2cccs2)C2CCS(=O)(=O)C2)c1 (stereo not drawn) | 61%
COc1cccc(NC(=O)CNC(C)CCC(C)C)c1 (stereo not drawn) | -4%
Cc1noc(C)c1C(=O)N1CCC[C@@]2(CCN(C(=O)Nc3cccc(F)c3)C2)C1 | 11%
O=C(O)C1CCN(S(=O)(=O)N2CCOCC2)CC1 | -4%
Cn1c(=O)cc(SCC(=O)N2CCCC2)c2ccc(Cl)cc21 | 76%

Some of these compounds in order of molecular weight, low to high.
SMILES | AmpC inh no det
O=C(c1cccc(S(=O)(=O)N2CCOCC2)c1)N1CCCCCC1 | 11%
O=C(NC1CCCCC1)c1cc2nc3c(c(C(F)(F)F)n2n1)CCCC3 | 72%
CCOC(=O)c1c(C)[nH]c(C(=O)CN2C(=O)NC(CC)(c3ccccc3)C2=O)c1C (stereo not drawn) | 22%
Cc1c(NC(=O)c2cccc(S(=O)(=O)N3CCOCC3)c2)c(=O)n(-c2ccccc2)n1C | 6%

Structural class: the compounds so far with bromine.
SMILES | AmpC inh no det
O=S(=O)(Nc1ccc2nc(-c3ccc(Br)o3)[nH]c2c1)c1ccccc1 | 3.2µM*
O=C(Nc1cnn(Cc2ccc(F)cc2)c1)c1cc(-c2ccc(Br)cc2)on1 | -14%

Compound activity deposited in PubChem BioAssay by National Center for Advancing Translational Sciences (NCATS).

Only part of the results is shown; count on the stated rates, not on these rows.
